CHT allo act = allosterically activates the human high affinity choline transporter; CHT-expressing cells, membrane potential dye, choline EC20; hits give high values; LV-AA mutant CHT in HEK293 cells; B-score at 10 µM; Q9GZV3; hit rate 0.49% among 310,000;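 active means initial fluorescence not abnormally high and integrated response B-score, plate-corrected, over 3 SD above library mean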
Target sequence (Q9GZV3 whole entry, looked up): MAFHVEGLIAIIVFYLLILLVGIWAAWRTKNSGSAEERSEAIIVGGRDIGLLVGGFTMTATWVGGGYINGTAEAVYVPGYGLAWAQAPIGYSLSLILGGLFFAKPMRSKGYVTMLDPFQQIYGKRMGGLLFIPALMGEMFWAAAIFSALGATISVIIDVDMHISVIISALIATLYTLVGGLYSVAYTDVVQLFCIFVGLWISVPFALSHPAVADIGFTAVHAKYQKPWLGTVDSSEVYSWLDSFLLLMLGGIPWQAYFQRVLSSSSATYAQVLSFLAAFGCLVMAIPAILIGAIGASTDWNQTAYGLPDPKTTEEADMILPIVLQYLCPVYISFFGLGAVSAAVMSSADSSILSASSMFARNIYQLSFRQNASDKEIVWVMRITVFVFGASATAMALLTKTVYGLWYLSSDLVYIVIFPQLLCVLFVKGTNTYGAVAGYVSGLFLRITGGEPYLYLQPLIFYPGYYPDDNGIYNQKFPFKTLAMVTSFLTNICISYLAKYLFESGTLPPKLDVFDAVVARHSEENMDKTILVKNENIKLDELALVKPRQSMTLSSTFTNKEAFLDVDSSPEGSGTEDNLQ
Calls only; i = inactive.

Molecule | CHT allo act
O=C(Cc1cccs1)N1CCN(c2nc(-c3ccc(Cl)cc3)cs2)CC1 | i
CC(C)(C)c1ccc(-c2noc(CCC(N)=O)n2)cc1 | i
Cc1ccc(NC(=O)Cn2ncn3c(cc4ccccc43)c2=O)cc1F | i
CC(C)CNC(=O)COC(=O)c1cncc(Br)c1 | i
COc1ccc(C(=O)Cn2nnc(-c3ccc(N4CCOCC4)cc3)n2)cc1OC | i
O=C(NCC1CCCO1)Nc1ccc(Cl)cc1 (stereo not drawn) | i
CCOC(=O)c1[nH]c(C)c(C(=O)N2CCN(c3ccc(OC)cc3)CC2)c1C | i
O=C(NC(=O)c1ccc(Cl)c(Cl)c1)OC1CCS(=O)(=O)C1 (stereo not drawn) | i
O=C(Nc1ncc(Cc2ccccc2)s1)C1COc2ccccc2O1 (stereo not drawn) | i
O=c1[nH]c(COc2ccccc2)nc2ccccc12 | i
O=C(CSc1nc2ccccc2o1)N1c2ccccc2Sc2ccccc21 | i
Cc1ccc(NC(=O)c2ccc3c(=O)n4c(nc3c2)CCCCC4)cc1F | i
O=C(O)C1SCCN1S(=O)(=O)c1ccc(N=NN2CCOCC2)cc1 (stereo not drawn) | i
Cc1ccc(N(CC(=O)NC2CCCCC2)C(=O)CCC(=O)Nc2nccs2)cc1 | i
COc1cc(S(=O)(=O)Nc2c(C)nn(C)c2C)ccc1NC(C)=O | i

The list goes on:
Molecule | CHT allo act
CC(=O)N(Cc1nc2sc(C)c(C)c2c(=O)[nH]1)C1CCCC1 | i
COC(C/C=C\[C@H](O)COCc1ccccc1)OC | i
O=C(CCc1ccccc1)N/N=C\C1CC=CCC1 (stereo not drawn) | i
CCOC(=O)CSc1nc(-c2ccccc2)nc2c1oc1ccccc12 | i
Cc1[nH]c2ccc(C(=O)O)cc2c1C | i
O=C(Nc1nnc(C2CCCC2)s1)C1CCN(S(=O)(=O)c2ccc(Cl)cc2)CC1 | i
Cc1cc(S(=O)(=O)N2CCCC(C(=O)Nc3ccc(C(=O)O)cc3)C2)ccc1Cl (stereo not drawn) | i
CC1CCN(CC(=O)N2c3ccccc3CC2C)CC1 (stereo not drawn) | i
N=c1c2c(-c3ccccc3)c(-c3ccccc3)oc2ncn1CCCN1CCOCC1 | i
CC(=O)C(Sc1ncnc2c1nnn2-c1ccc(F)cc1)C(=O)N(C)C (stereo not drawn) | i
COc1ccc(C(=O)ON=C2c3ccccc3-c3ccccc32)cc1OC | i
CC(SCC(=O)NC12CC3CC(CC(C3)C1)C2)C(=O)O (stereo not drawn) | i
CCN1C(=O)[C@@H]2[C@H](C1=O)[C@@H]1C(=O)Nc3ccccc3C(=O)N1[C@@H]2c1ccccc1 | i
COc1ccc2nc(C(C)O)[nH]c2c1 (stereo not drawn) | i
O=C1CSC(=S)N1/N=C/c1cccnc1 | i

(further entries)
Molecule | CHT allo act
CCOC(=O)c1c2ccc(OCC(=O)N/N=C/c3ccc(C)cc3)cc2n2ccccc12 | i
COc1ccc(C(CC(=O)O)NC(=O)c2cc3cc(Br)ccc3oc2=O)cc1OC (stereo not drawn) | i
Cc1ccc2c(c1)Oc1ccc(NC(=O)CCCl)cc1C(=O)N2 | i
O=C(N/N=C/c1ccc2c(c1)OCCO2)c1ccncc1 | i
CCOC(=O)C1=C(C)N(C2CCCCC2)C(=O)C1 | i
COCCCNC(=O)CC(=O)N/N=C\c1ccc(SC)cc1 | i
C/C(=N\NC(=S)NCc1ccccc1)c1ccc(C)o1 | i
CCCCCN1CC(O)=C(c2nc3ccccc3[nH]2)C1=N | i
CS(=O)(=O)N(CC(=O)N1CCCC1)c1cc(Cl)ccc1Cl | i
CCC1CCCCN1Cc1cc(OC)c(O)c([N+](=O)[O-])c1 (stereo not drawn) | i
Cc1cc(NS(=O)(=O)c2ccc(NC(=O)Nc3ccccc3)cc2)no1 | i
Cc1ccc(N2C(=O)CN(Cc3sccc3C)C2=S)cc1C | i
C/C(=N\Nc1ncc(Cl)cc1Cl)c1ccc(OC(F)F)cc1 | i
COCCn1c(COc2ccc(OC)cc2)nc2ccccc21 | i
CC(CNC1CCCCC1)OC(=O)c1ccccc1 (stereo not drawn) | i

Going on with the list:
Molecule | CHT allo act
O=C(NCCc1nc2ccccc2[nH]1)c1ccco1 | i
CCOC(=O)c1cccc(NC(=O)CCc2nc(-c3ccccc3F)no2)c1 | i
Cc1cc(=O)oc2cc(OCCSc3nnc(-c4ccccc4)o3)ccc12 | i
COc1ccc(/C=C/C(=O)NC(=S)Nc2cc3oc4ccccc4c3cc2OC)cc1 | i
CCN1C(=O)[C@@H]2[C@@H](c3ccc(-c4ccc(C(C)=O)cc4)c(OC)c3)N3CCCC[C@@]3(C(=O)OC)[C@@H]2C1=O | i
COCC(=O)N1CCC(Oc2ccc(C(=O)NCc3cc(C)no3)cc2)CC1 | i
COc1cccc2cc(C(=O)C3=C(O)C(=O)N(CCN4CCOCC4)C3c3cccs3)oc12 (stereo not drawn) | i
Cc1sc2ncn(CCC(=O)O)c(=O)c2c1C | i
COc1ccc(-n2nc(C(=O)NCC(=O)N3CCN(Cc4ccccc4)CC3)c3ccccc3c2=O)cc1 | i
N#Cc1cc(-c2cccc(Cl)c2)c[nH]c1=O | i
CCOC(=O)N1CCN(CCC(=O)Nc2cccc(C)c2)CC1 | i
CCCn1cc(S(=O)(=O)CC(=O)N2CCc3ccccc32)c2ccccc21 | i
Cn1c(Cn2c(=O)sc3ccccc32)nnc1SCC(=O)NC1CCCCC1 | i
CCCNC(=O)N1CCN(C(c2ccccc2)c2ccccc2)CC1 | i
Cc1ccc(-n2cc[nH]c2=S)c(C)c1 | i

(more compounds)
Molecule | CHT allo act
CC1C(c2ccccc2)N(C)C(c2ccccc2)CC1(O)c1ccccc1 (stereo not drawn) | i
Cc1nc(NS(=O)(=O)c2ccccc2)sc1NC(=O)Nc1ccccc1 | i
O=C(CN1C(=O)C2CCCCC2C1=O)OCc1nnc(-c2ccccc2)o1 (stereo not drawn) | i
Cc1c(C=N)c(O)n(C)c(=O)c1C#N | i
CC1(C)CC(=O)c2sc(NC(=O)CN3C(=O)CCC3=O)nc2C1 | i
CS(=O)(=O)N(CC(=O)Nc1ccccc1-c1ccccc1)c1cccc(F)c1 | i
COc1ccc(Cc2ccc(OC)c(N)c2)cc1N | i
CN(Cc1ccccc1)C(=O)CN1C(=O)COc2ccc(S(=O)(=O)N3CCCC3)cc21 | i
Cc1ccc2nc(SCC(=O)Nc3cccc(S(=O)(=O)N(C)C)c3)[nH]c2c1 | i
COC1CCN(Cc2c(C(=O)N3CCN(C4CCCCC4)CC3)nc3ccccn23)CC1 | i
Cc1cc(-c2nc(C)c(C(=O)NN)s2)no1 | i
Cc1cccc(OCCCC(=O)Nc2ccccc2C(F)(F)F)c1 | i
Cc1ccc(S(=O)(=O)N2CCN(C(=O)COC(=O)c3ccccn3)CC2)c(C)c1 | i
O=C(c1ccco1)N1CCN(S(=O)(=O)Cc2ccc(Cl)cc2)CC1 | i
CCOC(=O)C1CCCN(C(=O)Cn2cnc3c2c(=O)n(C)c(=O)n3C)C1 (stereo not drawn) | i

The results go on.
Molecule | CHT allo act
CN1CCN(c2ccc(CNS(=O)(=O)Cc3cccc(C(F)(F)F)c3)cc2)CC1 | i
CC1(C)C(c2cccs2)=[N+]([O-])C2(CCCCC/C2=N\NC(N)=O)N1O (stereo not drawn) | i
CCCCCn1c(C)c2c(OCC)cccc(=O)c2c1C | i
O=C(N1CCCCC1)C12CC3CC(CC(C3)C1)C2 | i
CCc1ccc(CN(C(=O)c2ccco2)C2CCS(=O)(=O)C2)cc1 (stereo not drawn) | i
O=C(NCC1CCCN(Cc2nccs2)C1)c1cccc2ccccc12 (stereo not drawn) | i
Cc1cc(NC(=O)CCC(=O)N(CC(=O)NC2CCCC2)Cc2ccc3c(c2)OCO3)no1 | i
CCN(CC)C(=O)CSc1nc2c(sc(=S)n2Cc2ccco2)c(=O)n1-c1ccccc1 | i
COc1ccc(-c2cc(C)no2)cc1S(=O)(=O)N(C)c1cccc(C)c1 | i
Cc1c(Cc2ccccc2)c(=O)oc2cc(OCC(=O)NCC(O)c3ccccc3)ccc12 (stereo not drawn) | i
O=C(c1ccccc1/S(=N/S(=O)(=O)c1ccccc1)N1CCOCC1)N1CCOCC1 (stereo not drawn) | i
Cc1ccc(S(=O)(=O)n2c(C)nc3cc(C)ccc32)cc1 | i
O=C(Nc1ccccc1)OCCOc1cccc(Br)c1 | i
Cc1[nH]c2ccc(C(=O)OC(C)C(=O)NC3(C#N)CCCCC3)cc2c1C (stereo not drawn) | i
O=S(=O)(NCc1ccc(C(F)(F)F)cc1)c1ccc(-n2cnnn2)cc1 | i

Random excerpt: 6 compounds from above
Molecule | CHT allo act
Cc1[nH]c2ccc(C(=O)OC(C)C(=O)NC3(C#N)CCCCC3)cc2c1C (stereo not drawn) | i
CCc1ccc(CN(C(=O)c2ccco2)C2CCS(=O)(=O)C2)cc1 (stereo not drawn) | i
O=C(Nc1ccccc1)OCCOc1cccc(Br)c1 | i
CCN(CC)C(=O)CSc1nc2c(sc(=S)n2Cc2ccco2)c(=O)n1-c1ccccc1 | i
Cc1c(Cc2ccccc2)c(=O)oc2cc(OCC(=O)NCC(O)c3ccccc3)ccc12 (stereo not drawn) | i
O=C(N1CCCCC1)C12CC3CC(CC(C3)C1)C2 | i

Structures above that contain a CF3 group (three):
Molecule | CHT allo act
Cc1cccc(OCCCC(=O)Nc2ccccc2C(F)(F)F)c1 | i
CN1CCN(c2ccc(CNS(=O)(=O)Cc3cccc(C(F)(F)F)c3)cc2)CC1 | i
O=S(=O)(NCc1ccc(C(F)(F)F)cc1)c1ccc(-n2cnnn2)cc1 | i

The list goes on:
Molecule | CHT allo act
CC(C)Oc1ccc(C(=O)Nc2ccc3c(c2)n(C)c(=O)n3C)cc1 | i
C#CCN(Cc1ccco1)C(=O)c1ccc(OC2CCN(Cc3ccccn3)CC2)cc1 | i
CCCCCCCCN1[C@@H](CC(=O)OCC)c2ccc(C(F)(F)F)cc2S1(=O)=O | i
CCOc1ccc(C(=O)Nc2ccc(NC(=S)NC(=O)CC)cc2)cc1Cl | i
CCOc1ccccc1NC(=O)C(OC(=O)c1ccc(NC(=O)CC#N)cc1)c1ccccc1 (stereo not drawn) | i
COCC(C)NC(=O)c1ccc(Cl)c(Cl)c1 (stereo not drawn) | i
CC(=O)N1c2ccc(S(=O)(=O)N3CCCCC3)cc2CC1C (stereo not drawn) | i
O=C(N/N=C/CCc1ccccc1)c1ccc(CN2c3cccc4cccc(c34)S2(=O)=O)cc1 | i
CCOC(=O)N1CCC(NC(=O)c2cccn3c(=O)c4cc(Br)ccc4nc23)CC1 | i
Cc1ccc(N2CC(C(=O)Nc3cc(C)ccc3F)CC2=O)cc1 (stereo not drawn) | i
COc1ccc(CNC(=O)Cn2nc(C(F)(F)F)c(Br)c2C)cc1 | i
O=C(c1ccc(CNS(=O)(=O)c2ccc(Br)cc2)cc1)N1CCCC1 | i
Cc1ccccc1COC(=O)CCCC1=NS(=O)(=O)c2ccccc2N1 | i
COC(=O)c1ccc(COC(=O)c2ccc(S(=O)(=O)N3CCC(C)CC3)cc2)o1 | i
O=C(O)C1CCCN(C(=O)NCc2ccccc2)C1 (stereo not drawn) | i

New compounds follow.
Molecule | CHT allo act
NC(=O)c1cc(S(=O)(=O)NCc2cccc(Br)c2)cs1 | i
Cn1nc(C(F)(F)F)c(C#N)c1N1CCN(c2ccccc2F)CC1 | i
Cc1c(CCO)c(=O)[nH]n1S(=O)(=O)c1cccc(C(F)(F)F)c1 | i
CCO[C@H]1OC(C(=O)Nc2ccccc2)=C[C@@H](c2coc3ccccc3c2=O)[C@@H]1CCCO | i
CCC(C)(C)c1nnc(NC(=O)c2cccc([N+](=O)[O-])c2)s1 | i
Cc1cc(NC(=O)CCC(=O)N(C2CC2)C2(C(=O)NC3CCCC3)CCC(C)CC2)no1 (stereo not drawn) | i
COc1ccccc1C(=O)C1CCCN(C(=O)c2cccc(Cn3cccn3)c2)C1 (stereo not drawn) | i
CCN(CCNS(=O)(=O)c1ccc2[nH]c(=O)sc2c1)c1ccccc1 | i
Cc1cccc(C(=O)O/N=C(\N)Cc2ccc([N+](=O)[O-])cc2)c1 | i
CCOC(=O)N1CCN(c2cc(=O)n(-c3cccc(Br)c3)c(=O)[nH]2)CC1 | i
CCOC(=O)C1CCN(CC(=O)c2c(C)[nH]c3cc(C)ccc23)CC1 | i
O=c1[nH]c(/C(Cl)=C/c2c(F)cccc2Cl)nc2cc(Cl)ccc12 | i
Cc1cccc(NC(=O)C2CCN(S(=O)(=O)c3cccs3)CC2)n1 | i
COc1ccc(OC)c(CNC(=O)c2ccc(C)c(NC(=O)C3=C(C)OCCS3)c2)c1 | i
O=C(NC12CC3CC(CC(C3)C1)C2)c1cc2nc(-c3ccco3)cc(C(F)(F)F)n2n1 | i

The list continues.
Molecule | CHT allo act
COc1ccc2nc(/C=N/NC(=O)[C@@H]3CCCN3C(=O)OC(C)(C)C)ccc2c1 | i
COc1ccc(N(Cc2cc3ccccc3[nH]c2=O)S(=O)(=O)c2ccc(OC)cc2)cc1 | i
O=C(Cc1ccccc1)N/N=C/c1ccccn1 | i
O=C(CCC(=O)NC1CCCCC1)N/N=C/c1ccncc1 | i
O=C(c1ccccc1F)N1CCN(c2ccc([N+](=O)[O-])c3cccnc23)CC1 | i
C/C=C\C=C/C(=O)Nc1cccc(C2=NOC3(C2)C[C@@H](C(N)=O)N(C(=O)COc2ccc(Cl)cc2)C3)c1 (stereo partly drawn) | i
Oc1c(Br)cc2oc3c(c2c1CNCc1ccccc1)CCCC3 | i
COc1ccc(-n2cc(CNCCN3CCOC3=O)c(-c3ccccc3Cl)n2)cc1 | i
CCCCNC(=O)CNC(=S)N(Cc1ccccc1)Cc1cccs1 | i
CCN(C(=O)c1cc2cc3ccc(C)cc3nc2o1)c1ccc(OC)cc1 | i
O=C(CN(CCN1CCOCC1)C(=O)Cn1nnc(-c2ccc(F)cc2)n1)NC1CCCCC1 | i
Cc1ccc(OCCSc2nnc(-c3ccncc3)n2C)cc1 | i

Not all compounds are listed, and most or all hits are left out here.
